eIF4H FP inh: inhibitors of RNA binding by human eIF4H; AID 2012; eIF4H fluorescence polarization binding assay; inhibition, % at 35 µM; Q15056; 290,000 tested, 0.94% active;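 active = 50% or more with normal probe brightness, or confirmed in later tests; about a fifth of its hits are not listed in these tables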;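 also: calls also rest on retests at 20 µM and on dose response follow-up; 0% = protein and probe with vehicle and 100% = probe without protein; strong numbers were not always called active; many hits fall short of the cut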
HIV Env fusion: inhibitors of HIV Env-mediated cell fusion. HeLa-JRFL Env/CEM21 cell fusion, luciferase. inhibition, % at 12.3 µM. 360,000 tested, 1.1% active;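 active = mean replicate inhibition score of at least 50 and every replicate individually at or above 50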;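 also: 0% = plate neutral controls and 100% = maraviroc near 300 nM; one replicate is shown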
Rce1 inhib: blocks yeast Ras-converting enzyme; Q03530; yeast membranes, quenched prenylated peptide cleavage fluorescence; calls only; 290,000 tested, 0.27% active;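 active = fall in fluorescence gain of 50% or more versus controls, with final raw signal at or below 3038400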;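 also: plate controls were neutral control wells for no effect and wells lacking membranes for full effect; tested at 10 µM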
CSC inhib: cancer stem cell inhibition; cancer stem cell-like cells viability, luminescence; inhibition, % at 7.5 µM; 300,000 tested, 1.1% active; AID 2717;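 active = mean at 75% or more and at least half the replicates too; tested in HMLE shEcad cells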;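 also: 0% = median of negative and 100% = median of positive control wells; the first replicate is given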
MT1-MMP act inh: inhibitors of human MT1-MMP activation; P50281; HT1080 RFP-PRO-GFP cells, GFP/RFP ratio fluorescence, overnight; percent of plate control window, DMSO zero; GFP/RFP ratio change, % at 20 µM; 360,000 tested, 0.061% active;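 active = GFP/RFP ratio change of at least 30% with cell ATP level not reduced by more than half and red fluorescence within 50% of control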; also: strong numbers were not always called active
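Material – HT1080 RFP-PRO-GFP cells · Control set – DMSO wells and RFP-L50D-GFP cells · Incubation – overnight cell settling, then overnight compound exposure, 37 °C, 5% CO2 · Compound dosing – single-point 20 µM compound, 1% DMSO · Read-out – GFP/RFP fluorescence ratio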
Yeast UUG start: alters start codon recognition fidelity in yeast. S. cerevisiae UUG-firefly luciferase reporter, luminescence/redox ratio. activity score, % at 18.7 µM. 350,000 tested, 0.13% active. AID 602363;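 active = replicate mean at a twofold rise or more, about +100% in these data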;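 also: firefly luciferase made from a UUG start codon reports start codon fidelity; reporter light over untreated wells divided by growth signal over untreated wells; some hits fall short of that in this replicate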
PABP FP inh: PABP-poly(A) binding inhibition; PABP-poly(A) RNA binding, fluorescence polarization; 290,000 tested, 1% active; P11940; inhibition, % at 35 µM;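 active = 50% or more with normal probe brightness, or confirmed in later tests; about a fifth of its hits are not listed in these tables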;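 also: calls also rest on retests at 20 µM and on dose response follow-up; controls were probe without protein and protein plus probe with vehicle; some compounds called inactive have numbers as strong as hits; many hits fall short of the cut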
Target sequence (P11940 whole entry, looked up): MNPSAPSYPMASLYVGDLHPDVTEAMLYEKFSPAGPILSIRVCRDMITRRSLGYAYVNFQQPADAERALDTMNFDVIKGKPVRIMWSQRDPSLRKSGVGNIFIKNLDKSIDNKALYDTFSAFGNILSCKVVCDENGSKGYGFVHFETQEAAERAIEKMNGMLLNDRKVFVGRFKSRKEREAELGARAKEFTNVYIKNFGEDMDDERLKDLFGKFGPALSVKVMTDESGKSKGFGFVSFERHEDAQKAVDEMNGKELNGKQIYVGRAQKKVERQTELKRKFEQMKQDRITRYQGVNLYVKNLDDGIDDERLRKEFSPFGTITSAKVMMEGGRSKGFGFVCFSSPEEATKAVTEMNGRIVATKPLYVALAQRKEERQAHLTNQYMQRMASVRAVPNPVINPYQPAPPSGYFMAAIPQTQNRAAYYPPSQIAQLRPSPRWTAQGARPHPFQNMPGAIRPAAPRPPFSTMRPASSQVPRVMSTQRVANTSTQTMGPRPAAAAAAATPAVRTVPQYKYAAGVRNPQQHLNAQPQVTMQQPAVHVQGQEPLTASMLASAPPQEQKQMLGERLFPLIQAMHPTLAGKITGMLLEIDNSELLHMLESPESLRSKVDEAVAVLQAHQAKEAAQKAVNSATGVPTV
MT1-MMP act inh RFP: recorded beside MT1-MMP act inh, whose call it bears; RFP signal change, %; measured here: RFP expression control read;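 0 = vehicle wells; hits needed this value within 50% of zero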
Starred values were filed as active, the others as inactive; i = inactive; . = no result given.

The line under a structure holds: MT1-MMP act inh RFP	CSC inhib	eIF4H FP inh	MT1-MMP act inh	PABP FP inh	Rce1 inhib	Yeast UUG start	HIV Env fusion
CCN(CC)c1ccc(/C=N\NC(N)=O)cc1
 : 3	-14	-2	0	3	i	-9	-39
CC(C)(Oc1ccc(Cl)cc1)C(=O)NCc1n[nH]c(=O)c2ccccc12
 : -6	.	.	0	.	i	-14	18
NC(=O)c1ccc(N2CCN(S(=O)(=O)c3ccccc3)CC2)c([N+](=O)[O-])c1
 : -25	.	1	-2	0	i	3	8
CC(=O)NC1=C(Nc2ccc(N(C)C)cc2)C(=O)c2ccccc2C1=O
 : 10	45	5	14	18	i	13	-32
O=C(COc1ccc(-c2nnco2)cc1)NC1CCCc2ccccc21 (stereo unspecified)
 : 3	-1	-10	1	0	i	-2	33
CCOCCCNC(=O)c1ccc(CS(=O)(=O)Cc2ccc(C)cc2)o1
 : -3	7	0	-1	-9	i	-24	.
Nc1nc(NCC2CCCO2)nc(Nc2ccc(Cl)cc2)c1[N+](=O)[O-] (stereo unspecified)
 : -4	.	1	-1	4	i	-1	1
O=C(COc1ccccc1Cl)Nc1ccc(CN2CCCCC2)cc1
 : 2	51	-5	1	-12	i	-6	-6
O=C(NC1CC2CCC(C1)N2C(=O)NC1CCCCC1)NC12CC3CC(CC(C3)C1)C2 (stereo unspecified)
 : -4	-22	-3	-2	8	i	-12	-2
Brc1ccc(Nc2nc(-c3cccnc3)cs2)cc1
 : -7	7	-2	-7	3	i	.	-68
CC(C)CCNC(=O)c1c[nH]c2ccc(S(=O)(=O)N3CCOCC3)cc2c1=O
 : -6	15	.	5	.	i	.	-6
CNc1cc(C(=O)Nc2cccc(OCc3ccccc3)c2)ncn1
 : -4	.	.	2	.	.	-10	-80
COn1c(C)c(C)c2c3nonc3ccc21
 : -5	.	29	-17	22	.	.	12
COc1cccc(NC(=O)Cn2nnc(C(=O)NCc3ccc4c(c3)OCO4)c2N)c1
 : 1	2	-9	3	3	i	9	-3
Nc1c(C(=O)NCc2ccccc2)c2nc3ccccc3nc2n1CCCN1CCOCC1
 : 2	31	5	1	3	i	.	-13
COc1ccc(CNC(=O)c2sc(=S)n(-c3ccc(OC)cc3)c2N)cc1
 : 4	-3	0	3	-4	i	-7	.
O=C(NCc1cccs1)C1CCN(C(=O)NCc2ccccc2)CC1
 : 0	15	8	2	-6	i	-21	-8
NC(=O)c1ccccc1N1CCCCC1
 : 1	-11	-12	-4	-2	i	.	6
CCc1nnc(NC(=O)c2ccc(OC)cc2OC)s1
 : 1	-12	2	1	20	i	-44	.
CC1CC(C)(C)NC(=S)N1CCCC(=O)Nc1ccc2c(c1)OCCO2 (stereo unspecified)
 : -5	-10	-4	-7	8	i	-38	-15
CCCCCCCC#Cc1ccccc1/C=N/S(=O)c1ccc(C)cc1 (stereo unspecified)
 : .	6	5	.	-1	.	.	.
Cc1cc(C)nc(SCCS(=O)(=O)Cc2ccccc2)n1
 : -1	-13	7	1	6	i	-27	-1
NNC(=O)c1csc(CS(=O)(=O)c2ccc(Cl)cc2)n1
 : 6	-14	3	0	0	i	-16	16
O=C(Nc1ccc([N+](=O)[O-])cc1)c1cn(-c2ccccc2)nc1-c1cc2ccccc2o1
 : 5	-1	3	-1	5	i	.	.
CC(C)(C)C(=O)Oc1cc(N)n(S(=O)(=O)c2ccc(F)cc2)n1
 : 6	2	6	4	-2	i	-22	13
CCOc1ccc(NC(=O)C2CCN(S(=O)(=O)c3cccs3)CC2)cc1
 : -4	53	-5	1	5	i	-11	7
CCOC(=O)Cn1nc(C)n(-c2ccccc2)c1=O
 : 6	-6	-8	0	-5	i	-10	2
O=C1c2ccccc2CN2C(=O)c3ccccc3CN12
 : -1	17	-2	-2	7	i	-8	13
C=CCn1c(COc2ccc(Cl)cc2)nnc1SCC(=O)c1c(N)n(C)c(=O)n(C)c1=O
 : 0	-2	-4	-1	4	i	-27	0
O=[N+]([O-])c1cc(CN2CCCCCC2)ccc1O
 : 0	-4	3	5	7	i	-11	5
CSc1cccc(NC(=O)C2CC(=O)N(c3ccc4c(c3)OCCO4)C2)c1 (stereo unspecified)
 : -4	.	.	0	.	.	-9	4
CN(C)/C=C/C(=O)c1nnn(C2CCCCC2)c1NC1CCCCC1
 : 6	11	-15	-37	0	i	-8	.
CN(Cc1ccccc1)C(CNS(=O)(=O)c1ccccc1)c1ccccc1 (stereo unspecified)
 : 0	.	.	-3	.	.	-16	32
COC(=O)CN1C(=S)N(c2ccccc2)C(=O)C1CC(=O)Nc1ccc(Cl)cc1 (stereo unspecified)
 : 3	13	1	3	1	i	.	-17
O=C(COC(=O)c1ccccn1)Nc1cc(Cl)ccc1Cl
 : 2	-21	-10	3	0	i	.	.
COc1ccc(CCNC(=O)C/C(C)=N/NC(=O)c2cnccn2)cc1
 : 7	-16	-1	7	-2	i	-15	2
CC(=O)N1C(=O)N(C)C2C1N(C(C)=O)C(=O)N2C (stereo unspecified)
 : 5	-9	1	-5	-19	i	-24	.
COc1cc2c(cc1OC)CN(CC(O)c1ccccc1)CC2 (stereo unspecified)
 : 3	-1	-3	2	-8	i	-8	-8
CC(NC(=O)c1cccc(S(=O)(=O)N2CCc3ccccc32)c1)c1ccco1 (stereo unspecified)
 : -3	3	.	-2	.	.	-24	-20
C=CCc1c(C)nc2c(C)cccc2c1SC(=N)N
 : -1	38	0	1	-1	i	-22	30
N=c1n(CCN2CCCC2)c2ccccc2n1CC(O)c1ccc(Cl)c(Cl)c1 (stereo unspecified)
 : 2	32	-5	2	-1	i	10	-16
CCCCCCSC1=C(C#N)C(c2ccc(C)o2)CC(=O)N1 (stereo unspecified)
 : -2	13	-5	1	-3	i	5	.
CSc1ccccc1C(=O)NCC(c1ccco1)N(C)C (stereo unspecified)
 : 4	-8	-6	1	3	i	-6	-6
Cc1ccc(O)c(NC(=O)c2onc(C)c2Cl)c1
 : 7	21	-10	9	-4	i	-10	-10
Cc1ccc(S(=O)(=O)N(C)C)cc1NC(=O)COc1ccc(-c2nnco2)cc1
 : -3	-4	-2	0	8	i	-26	7
O=C(Cc1c[nH]c2ccccc12)N/N=C/c1cccc(F)c1
 : 1	14	3	2	-5	i	-1	.
COc1ccccc1N1CCN(C(=O)CSc2ncnc3c2cnn3-c2ccc(C)c(C)c2)CC1
 : .	76*	5	.	5	i	.	.
CCOc1ccc(Oc2cc(N)cc([N+](=O)[O-])c2)cc1
 : 0	.	2	4	-10	i	.	3
CN(c1ccccc1)c1ncnc2c1ncn2C
 : 3	.	.	-1	.	.	2	2
COc1ccccc1NC1=C(NC(C)=O)C(=O)c2ccccc2C1=O
 : 11	.	-12	-15	4	.	.	6
CCN(CC)S(=O)(=O)c1cccc(C(=O)Nc2nncs2)c1
 : 1	0	1	4	5	i	-21	-65
CC(C)(Oc1ccc(Cl)cc1)C(=O)NC1=NN(c2ccccc2)C(=O)C1
 : -2	112*	12	12	9	i	.	5
Cc1ccc(S(=O)(=O)c2cc3c(=O)n4ccccc4nc3n(CCc3ccccc3)c2=N)cc1
 : -4	-12	11	-8	48	i	-3	-104
CCc1ccc(-c2cc3c(=O)n(CC(=O)NCCCN4CCN(Cc5ccccc5)CC4)nc(C)n3n2)cc1
 : -1	-3	-20	-3	1	i	-6	-3
Clc1ccc(-n2nnnc2CN2CCOCC2)cc1
 : 1	-20	4	6	7	i	-11	11
COc1ccc(NC(=O)C(C)Sc2nnc(C3CC3)n2C2CC2)cc1 (stereo unspecified)
 : 3	0	.	-1	.	.	11	-5
CCC(C)N1C(=O)S/C(=C/c2ccc(Sc3nc4ccccc4[nH]3)o2)C1=O (stereo unspecified)
 : -27	38	-9	-2	-5	i	.	.
Cc1cccn2c(=O)nc(SCC(=O)c3ccccc3)nc12
 : 3	5	.	2	.	i	-28	-9
COc1cc2c(cc1OC)C(C(=O)NCC1COc3ccccc3O1)C(c1cccnc1)N(C)C2=O (stereo unspecified)
 : .	8	1	.	-4	.	.	-11
CC1CN(C(=O)c2cccc(Oc3ccccc3)c2)CC(C)O1 (stereo unspecified)
 : 1	-11	-2	0	-5	i	-4	-27

(continued)
The line under a structure holds: MT1-MMP act inh RFP	CSC inhib	eIF4H FP inh	MT1-MMP act inh	PABP FP inh	Rce1 inhib	Yeast UUG start	HIV Env fusion
CC1(C(=O)NS(=O)(=O)c2cccc(C#N)c2)CCN1C(=O)C/C=C/c1ccccc1 (stereo unspecified)
 : 4	.	.	-2	.	.	-6	6
CC(/C=C1\SC(=O)N(CCCC(=O)O)C1=O)=C\c1ccccc1
 : 1	-9	4	1	0	i	-71	.
O=C(Nc1cccc([N+](=O)[O-])c1)Nn1cnnc1
 : 3	.	-11	2	-2	i	-17	-18
CN(CCCn1ccc(N)nc1=O)Cc1ccco1
 : 6	.	.	1	.	.	9	16
CCn1c(SCC(=O)N2CC(C)OC(C)C2)nc2c([nH]c3ccccc32)c1=O (stereo unspecified)
 : -4	-5	-2	-1	10	i	-15	22
O=C(CCC(=O)N1CCOc2ccccc21)NCc1ccccn1
 : 4	-7	6	1	-4	i	-26	5
CCc1cccc(C)c1NS(=O)(=O)c1cc(Br)cnc1N
 : 1	-8	.	-2	.	i	-10	5
COc1ccccc1N1CCN(S(=O)(=O)/C=C/c2ccccc2)CC1
 : -7	-11	1	1	-2	i	-6	.
Cc1cccc(NC(=O)CSc2nc3[nH]ncc3c(=O)[nH]2)c1
 : 0	2	-2	-3	-5	i	.	-5
c1ccc(-c2cc3nc(NCc4cccs4)ccn3n2)cc1
 : -1	.	.	7	.	.	-5	-390
CCOC(=O)/C=C1\SCC(=O)N1CC(=O)NC(C)c1ccc(F)cc1 (stereo unspecified)
 : 10	-16	-6	-1	-13	i	.	-21
Cc1nc(C)n(C(C)CNC(=O)c2ccccc2)n1 (stereo unspecified)
 : 5	-29	-18	0	-1	i	-31	-9
Cc1ccc(Cl)cc1N1CCN(Cc2cc(=O)n3ccsc3n2)CC1
 : -1	.	7	-10	-5	i	.	3
Cc1cc(C)n(Cc2ccccc2F)c(=O)c1C#N
 : 2	-8	-4	-1	2	i	-9	-23
CCCCC(=O)Oc1c(S(=O)(=O)c2ccccc2)c(C)nn1C(C)(C)C
 : 3	12	10	-1	0	i	-9	-25
COc1cccc2cc(C(=O)NC3CC4CCC3C4)oc12 (stereo unspecified)
 : -3	-5	-1	4	14	i	18	-14
Cc1ccc2nc(-c3ccncc3)cc(-c3ccccc3)c2c1
 : -19	31	-6	-36	-2	i	-26	-81
Cc1c(NS(=O)(=O)c2ccc(N3CCCCC3)c([N+](=O)[O-])c2)c(=O)n(-c2ccccc2)n1C
 : 1	-7	-1	4	2	i	-18	10
O=c1[nH][nH]c(=S)n1C1CCCCC1
 : .	.	-6	.	2	i	.	.
COc1ccc(/C=N/OCc2nc3c4c(ncn3n2)Oc2ccc3ccccc3c2C4c2ccccc2)cc1 (stereo unspecified)
 : 3	-3	9	-6	6	i	-18	-19
CC1CCCN(C(=O)CNS(=O)(=O)c2cccs2)C1 (stereo unspecified)
 : 3	-7	-3	-2	17	i	-20	-7
COCCN(C(=O)COC(=O)CCOc1ccccc1C)c1c(N)n(Cc2ccccc2)c(=O)[nH]c1=O
 : 3	-7	.	0	.	i	15	.
Cc1cc(C)n(CCCNC(=O)c2ccco2)n1
 : -1	-5	.	-2	.	.	-12	.

High-throughput results from PubChem BioAssay.
